# Yeast UUG start: yeast start codon fidelity modulation | AID 602363 | activity score, % at 18.7 µM | 350,000 tested, 0.13% active | S. cerevisiae UUG-firefly luciferase reporter, luminescence/redox ratio;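 active = replicate mean at a twofold rise or more, about +100% in these data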;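 note: firefly luciferase made from a UUG start codon reports start codon fidelity; reporter light over untreated wells divided by growth signal over untreated wells; some hits fall short of that in this replicate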
# Numbers without * were called inactive. This is a subset (hit frequency here may not be typical).
SMILES,Yeast UUG start
C[C@@H](O)C#Cc1ccc([C@H]2[C@@H](CO)N3CCCCN(C(=O)c4ccncc4)C[C@H]23)cc1,-5
CC1C=NC(S(=O)(=O)N2CC[C@H]3[C@@H](CO)N(C)c4ccc(C5=CCCCC5)cc4[C@H]32)=N1 (some centres not stated),16
N#Cc1cccc(-c2ccc([C@@H]3[C@H](CO)N4CCCCN(C(=O)Nc5cccc(F)c5)C[C@@H]34)cc2)c1,-5
C[C@H](CO)N1C[C@H](C)[C@@H](CN(C)S(=O)(=O)c2ccc(Cl)cc2)Oc2ccc(NC(=O)c3ccncc3)cc2C1=O,15
CO[C@H]1CN(C)C(=O)c2cc(NC(=O)C3CC3)ccc2OC[C@H](C)N(CC2CC2)C[C@@H]1C,0
N#Cc1cccc(-c2ccc([C@@H]3[C@@H](CO)N4CCCCN(S(=O)(=O)c5ccccc5)C[C@@H]34)cc2)c1,-4
CO[C@@H]1CN(C)C(=O)c2cc(NC(=O)C3CC3)ccc2OC[C@@H](C)N(Cc2ccc(F)cc2)C[C@@H]1C,-5
COCC(=O)Nc1ccc2c(c1)OC[C@H](C)N(C(=O)Cc1ccccn1)C[C@H](C)[C@@H](OC)CN(C)C2=O,9
CN1c2ccc(Br)cc2[C@H]2[C@H](CCN2S(=O)(=O)c2cccc(F)c2)[C@@H]1CO,-3
CCCC(=O)Nc1ccc2c(c1)C(=O)N(C)C[C@H](OC)[C@H](C)CN(Cc1ccc(-c3ccccn3)cc1)[C@@H](C)CO2,-1
O=C(c1cccc(F)c1)N1CCCCN2[C@H](C1)[C@@H](c1ccc(-c3ccc(F)cc3)cc1)[C@@H]2CO,-12
OC[C@H]1[C@@H](c2ccc(-c3ccccc3)cc2)[C@H]2CN(Cc3cncnc3)CCCCN21,1
COc1ccc(CN(C)C[C@@H]2Oc3ccc(NC(=O)CCCN(C)C)cc3C(=O)N([C@H](C)CO)C[C@H]2C)cc1,-8
Cc1ccc(S(=O)(=O)N(C)C[C@@H]2Oc3ccc(NC(=O)C4CC4)cc3C(=O)N([C@H](C)CO)C[C@H]2C)cc1,-6
COCC(=O)N1C[C@@H](C)[C@@H](OC)CN(C)C(=O)c2cc(NC(=O)c3cnccn3)ccc2OC[C@H]1C,3
COc1ccccc1NC(=O)N1CCCCN2[C@H](CO)[C@H](c3ccc(-c4cccc(C)c4)cc3)[C@@H]2C1,17
COc1ccc(NC(=O)Nc2ccc3c(c2)C(=O)N([C@@H](C)CO)C[C@H](C)[C@H](CN(C)Cc2ccc(-c4ccccc4)cc2)O3)cc1,9
CO[C@H]1CN(C)C(=O)c2ccc(NC(=O)C3CCC3)cc2OC[C@@H](C)N(Cc2ccc(F)cc2)C[C@H]1C,0
CO[C@H]1CN(C)C(=O)c2cc(NS(C)(=O)=O)ccc2OC[C@H](C)N(CC2CC2)C[C@H]1C,-23
C[C@@H]1CN([C@H](C)CO)C(=O)c2cc(NS(C)(=O)=O)ccc2O[C@@H]1CN(C)C(=O)Nc1ccc(F)cc1,3
C[C@H](CO)N1C[C@H](C)[C@H](CN(C)C(=O)NC2CCCCC2)Oc2c(NC(=O)Nc3ccccc3)cccc2C1=O,-23
CN1C[C@H]2[C@@H](c3ccccc31)[C@@H](CO)N2C(=O)C1CCCCC1,-6
CO[C@@H]1CN(C)C(=O)c2ccc(NC(=O)c3ccccc3)cc2OC[C@@H](C)NC[C@H]1C,13
C[C@H](CO)N1C[C@H](C)[C@H](CN(C)S(=O)(=O)c2cccs2)Oc2c(NS(=O)(=O)c3ccc(F)cc3)cccc2C1=O,5
CC=Cc1ccc2n(c1=O)C[C@H]1[C@H](CO)[C@@H](C(=O)NCc3ccc(F)cc3)N(CC)[C@@H]21 (mixture of isomers),11
C[C@@H]1CN([C@H](C)CO)C(=O)c2cc(NC(=O)Cc3ccccc3)ccc2O[C@H]1CN(C)S(=O)(=O)c1cn(C)cn1,3
CO[C@H]1CN(C)C(=O)c2ccc(NS(C)(=O)=O)cc2OC[C@@H](C)N(Cc2cccnc2)C[C@@H]1C,-4
CO[C@@H]1CN(C)C(=O)c2ccc(NC(C)=O)cc2OC[C@H](C)N(CCc2ccccc2)C[C@H]1C,-1
COC(=O)C[C@H]1CC[C@@H]2[C@H](COC[C@H](O)CN2S(=O)(=O)c2ccccc2C)O1,-1
COc1ccc(NC(=O)N2CC[C@@H]3[C@@H](CO)N(C)c4ccc(-c5ccc(F)cc5)cc4[C@@H]32)cc1,-5
CC(=O)N1[C@H](CNC(=O)C2CC2)[C@H](c2ccc(-c3cccc(F)c3)cc2)[C@@H]1CO,-7
C[C@@H]1CN([C@H](C)CO)C(=O)Cc2cc(NC(=O)Nc3cccc4ccccc34)ccc2O[C@@H]1CN(C)Cc1ccc(C(=O)O)cc1,21
CN1C(=O)c2cc(NC(=O)c3cnccn3)ccc2OC[C@@H]2O[C@H](CC(=O)N[C@H]3CCN(Cc4ccccc4)C3)CC[C@H]21,5
O=C(C1CCCC1)N1CCCCN2[C@H](C1)[C@H](c1ccc(-c3ccncc3)cc1)[C@@H]2CO,-3
COc1ccc(CN2[C@@H](CO)[C@@H]3c4ccccc4N(C(=O)Nc4ccc(F)cc4)C[C@@H]32)cc1,-4
Cn1cnc(S(=O)(=O)N2CC[C@@H]3[C@H](CO)Nc4ccc(-c5ccccc5F)cc4[C@@H]32)c1,-7
CN1C(=O)c2cc(NC(=O)NC3CCCC3)ccc2OC[C@@H]2O[C@H](CC(=O)O)CC[C@H]21,4
O=C(CN1CCOCC1)N1CCCCN2[C@H](CO)[C@@H](c3ccc(/C=C/c4ccccc4)cc3)[C@H]2C1,8
O=C(C1CCCC1)N1[C@H](CO)[C@@H]2c3ccccc3N(S(=O)(=O)c3ccccc3)C[C@@H]21,29
CC(=O)N1[C@@H](CO)[C@@H]2c3ccccc3N(S(=O)(=O)c3ccccc3)C[C@@H]21,4
O=C(c1cccc(F)c1)N1C[C@H]2[C@@H](c3ccccc31)[C@@H](CO)N2C(=O)Cc1ccccc1,4
CCN(C[C@@H]1N[C@@H](CO)[C@H]1c1ccc(-c2cccc(C#N)c2)cc1)C(C)=O,16
COc1ccccc1C(=O)N1C[C@H]2[C@@H](c3ccccc31)[C@H](CO)N2C(=O)Cc1cccnc1,1
O=C(c1ccccn1)N1CC[C@H]2[C@H](CO)Nc3ccc(-c4cccc(F)c4)cc3[C@H]21,10
O=C(C[C@@H]1CC[C@@H]2[C@H](COC[C@H](O)CN2Cc2nccs2)O1)NCc1ccccc1F,0
CCCNC(=O)Nc1ccc2c(c1)C(=O)N(C)C[C@H](OC)[C@@H](C)CN(C(=O)C1CCC1)[C@@H](C)CO2,2
CO[C@H]1CN(C)C(=O)c2cc(NC(C)=O)ccc2OC[C@@H](C)N(C(=O)Cc2ccccn2)C[C@@H]1C,1
CCCNC(=O)C[C@H]1C[C@H]2c3cc(NC(=O)CC4CC4)ccc3O[C@H]2[C@H](CO)O1,13
COc1ccc(CN(C)C[C@H]2OCc3cnnn3CCCC(=O)N([C@@H](C)CO)C[C@H]2C)cc1,-13
C[C@H]1CN([C@@H](C)CO)C(=O)c2cccc(NS(=O)(=O)c3cn(C)cn3)c2O[C@@H]1CN(C)C(=O)NC1CCCCC1,-2
O=C(Nc1ccccc1)N1CCCCN2[C@H](C1)[C@H](c1ccc(C#CC3CC3)cc1)[C@@H]2CO,49
COCC(=O)Nc1ccc2c(c1)[C@@H]1C[C@@H](CC(=O)NCC3CC3)O[C@H](CO)[C@@H]1O2,-11
C[C@H]1CN([C@@H](C)CO)C(=O)Cc2cc(NS(=O)(=O)c3ccccc3)ccc2O[C@H]1CN(C)C,-8
O=C(C1CC1)N1C[C@@H]2[C@H](c3ccccc31)[C@@H](CO)N2S(=O)(=O)c1ccccc1,-1
COCC(=O)Nc1ccc2c(c1)OC[C@@H](C)N(C)C[C@H](C)[C@@H](OC)CN(C)C2=O,-7
CC(C)(O)C#Cc1ccc([C@H]2[C@@H](CO)N3CCCCN(Cc4ccccc4F)C[C@@H]23)cc1,-1
COc1cccc(-c2ccc3c(c2)[C@@H]2[C@@H](CCN2S(=O)(=O)C2=NC(C)C=N2)[C@@H](CO)N3C)c1 (some centres not stated),-15
COc1ccc(CN(C)C[C@H]2Oc3ccc(N(C)C)cc3CC(=O)N([C@@H](C)CO)C[C@H]2C)cc1,-11
COc1ccc(NC(=O)N(C)C[C@H]2Oc3c(NC(=O)Nc4cccc5ccccc45)cccc3C(=O)N([C@H](C)CO)C[C@H]2C)cc1,1
C[C@@H]1CN([C@@H](C)CO)C(=O)Cc2cc(NC(=O)Nc3ccc(F)cc3)ccc2O[C@@H]1CN(C)S(C)(=O)=O,2

# The list continues:
SMILES,Yeast UUG start
COCC(=O)N1C[C@@H](C)[C@H](OC)CN(C)C(=O)c2cc(NC(=O)c3cnccn3)ccc2OC[C@@H]1C,3
OC[C@@H]1[C@H](c2ccc(-c3cccnc3)cc2)[C@@H]2CN(CC3CC3)CCCCN12,-14
O=C(c1ccncc1)N1C[C@@H]2[C@H](c3ccccc31)[C@H](CO)N2C(=O)c1ccccc1F,-4
COCC(=O)N1CC[C@@H]2[C@H]1c1cc(-c3cccc(C#N)c3)ccc1N[C@@H]2CO,7
O=C(C[C@H]1C[C@H]2c3cc(NS(=O)(=O)c4ccccc4)ccc3O[C@H]2[C@@H](CO)O1)NC1CCCC1,4
C/C=C/c1ccc([C@H]2[C@@H](CO)N(C(=O)C3CC3)[C@H]2CN(C)C(C)=O)cc1,23
C[C@H]1CN([C@@H](C)CO)C(=O)c2c(c3ccccc3n2C)-c2ccccc2CO[C@@H]1CN(C)S(=O)(=O)c1ccc(Cl)cc1,-13
C[C@H]1CN([C@@H](C)CO)C(=O)c2cc(NC(=O)Cn3cnnn3)ccc2O[C@@H]1CN(C)C(=O)Nc1ccc2c(c1)OCO2,-7
C[C@H]1CN([C@@H](C)CO)C(=O)Cc2cc(NC(=O)C3CCCCC3)ccc2O[C@@H]1CN(C)Cc1ccccc1,-2
CCC(=O)Nc1ccc2c(c1)C(=O)N(C)C[C@H](OC)[C@@H](C)CN(Cc1ccccc1F)[C@@H](C)CO2,-14
O=C(NC1CCCC1)N1CCCCN2[C@H](CO)[C@H](c3ccc(-c4cccnc4)cc3)[C@@H]2C1,-9
CNC(=O)C[C@@H]1CC[C@@H]2[C@H](COC[C@@H](O)CN2C(=O)c2ccccn2)O1,-7
CC(=O)N1[C@H](CO)[C@@H]2c3ccccc3N(C(=O)c3ccc(F)cc3)C[C@@H]21,-4
O=C(C1CC1)N1CCCCN2[C@H](CO)[C@@H](c3ccc(C#CC4CC4)cc3)[C@H]2C1,2
CCCC#Cc1ccc([C@@H]2[C@H](CO)N3CCCCN(C(=O)NC4CCCC4)C[C@@H]23)cc1,1
CC(C)NC(=O)Nc1cccc2c1O[C@H](CN(C)S(=O)(=O)c1ccc(Cl)cc1)[C@@H](C)CN([C@H](C)CO)C2=O,3
C/C=C/c1ccc([C@@H]2[C@H](CO)N[C@H]2CN(CC)C(=O)c2ccccn2)cc1,-2
CN(C)C(=O)c1cccc(-c2ccc3c(c2)[C@H]2[C@H](CCN2Cc2nccs2)[C@H](CO)N3)c1,-2
COc1ccccc1CNC(=O)C[C@@H]1CC[C@H]2[C@@H](COc3ccc(NC(=O)Nc4ccc(F)c(F)c4)cc3C(=O)N2C)O1,-12
COc1ccccc1C(=O)N1C[C@@H]2[C@H](c3ccccc31)[C@H](CO)N2Cc1ccc(F)cc1,-4
Cc1cccc(S(=O)(=O)N(C)C[C@H]2OCc3ccccc3-c3c(n(C)c4ccccc34)C(=O)N([C@@H](C)CO)C[C@@H]2C)c1,22
CCCN1C[C@@H](C)[C@@H](OC)CN(C)C(=O)c2cc(NC(=O)Nc3c(C)noc3C)ccc2OC[C@H]1C,-14
C[C@@H]1CN([C@H](C)CO)C(=O)c2cc(C#CC3CCCCC3)cnc2O[C@@H]1CN(C)C(=O)C1CCCCC1,7
CN1C(=O)c2cc(NC(=O)Nc3ccccc3F)ccc2OC[C@@H]2O[C@@H](CC(=O)NCc3ccc(-c4ccccc4)cc3)CC[C@@H]21,-23
CCCC(=O)Nc1ccc2c(c1)OC[C@@H](C)N(C(=O)CN1CCOCC1)C[C@@H](C)[C@H](OC)CN(C)C2=O,18
C[C@@H]1CN([C@H](C)CO)C(=O)c2ccccc2-c2ccccc2CO[C@@H]1CN(C)Cc1ccccc1,9
C[C@@H]1CN([C@@H](C)CO)C(=O)c2cccc(NS(=O)(=O)c3cn(C)cn3)c2O[C@@H]1CN(C)C(=O)Nc1ccc2c(c1)OCO2,-6

# Not a retest: an excerpt of the list.
SMILES,Yeast UUG start
C[C@@H]1CN([C@H](C)CO)C(=O)Cc2cc(NC(=O)Nc3cccc4ccccc34)ccc2O[C@@H]1CN(C)Cc1ccc(C(=O)O)cc1,21
CN1C(=O)c2cc(NC(=O)c3cnccn3)ccc2OC[C@@H]2O[C@H](CC(=O)N[C@H]3CCN(Cc4ccccc4)C3)CC[C@H]21,5
O=C(C1CCCC1)N1CCCCN2[C@H](C1)[C@H](c1ccc(-c3ccncc3)cc1)[C@@H]2CO,-3
COc1ccc(CN2[C@@H](CO)[C@@H]3c4ccccc4N(C(=O)Nc4ccc(F)cc4)C[C@@H]32)cc1,-4
Cn1cnc(S(=O)(=O)N2CC[C@@H]3[C@H](CO)Nc4ccc(-c5ccccc5F)cc4[C@@H]32)c1,-7
CN1C(=O)c2cc(NC(=O)NC3CCCC3)ccc2OC[C@@H]2O[C@H](CC(=O)O)CC[C@H]21,4
O=C(CN1CCOCC1)N1CCCCN2[C@H](CO)[C@@H](c3ccc(/C=C/c4ccccc4)cc3)[C@H]2C1,8
O=C(C1CCCC1)N1[C@H](CO)[C@@H]2c3ccccc3N(S(=O)(=O)c3ccccc3)C[C@@H]21,29
CC(=O)N1[C@@H](CO)[C@@H]2c3ccccc3N(S(=O)(=O)c3ccccc3)C[C@@H]21,4
O=C(c1cccc(F)c1)N1C[C@H]2[C@@H](c3ccccc31)[C@@H](CO)N2C(=O)Cc1ccccc1,4
CCN(C[C@@H]1N[C@@H](CO)[C@H]1c1ccc(-c2cccc(C#N)c2)cc1)C(C)=O,16
COc1ccccc1C(=O)N1C[C@H]2[C@@H](c3ccccc31)[C@H](CO)N2C(=O)Cc1cccnc1,1
O=C(c1ccccn1)N1CC[C@H]2[C@H](CO)Nc3ccc(-c4cccc(F)c4)cc3[C@H]21,10

# High-throughput results (PubChem)
